# HCMV NEC inh – inhibitors of HCMV UL50-UL53 interaction, biochemical, HTRF. normalized percent inhibition. inhibition, % (concentration not given with the values). AID 1918969, 2023. 0.15% of 190,000 active;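 active means both replicates at 50% or more, plus weaker picks with an unusually low signal ratio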;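 further: stock transfer was 100 nL into about 20 µL; 0% = negative control wells and 100% = wells with untagged competitor protein; inactives centre near -12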
# GIV Gai3 FP – inhibitors of GIV peptide binding to Galpha-i3, primary screen, biochemical, fluorescence polarization, FITC-GIV GBA peptide, rat Galphai3; AID 1224905, 2016; 0.42% of 210,000 active; percent of control (FP), % (concentration not given with the values); 90 min; stronger effect = lower value; scaled: aluminum fluoride 0%, vehicle 100%;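 active means replicate mean at 85% of control or lower, very high polarization wells dropped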;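 further: wells of about 15 µL received 100 nL stock; the first replicate is given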
# Target sequence (P08753 whole entry, looked up): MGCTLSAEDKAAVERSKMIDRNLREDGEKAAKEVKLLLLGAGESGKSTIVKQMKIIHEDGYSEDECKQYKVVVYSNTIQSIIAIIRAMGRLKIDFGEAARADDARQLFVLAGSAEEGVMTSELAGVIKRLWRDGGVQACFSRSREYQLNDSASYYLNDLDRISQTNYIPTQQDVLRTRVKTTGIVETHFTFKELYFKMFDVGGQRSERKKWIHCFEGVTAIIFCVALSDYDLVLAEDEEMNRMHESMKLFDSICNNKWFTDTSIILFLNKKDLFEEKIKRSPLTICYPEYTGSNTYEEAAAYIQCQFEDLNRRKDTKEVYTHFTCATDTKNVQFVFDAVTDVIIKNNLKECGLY
# Sa growth 42C – S. aureus growth inhibition at 42 and 30 °C, primary screen, LtaS inhibitor project, RN4220, two temperatures; 0.53% of 170,000 active; AID 720641, 2013; OD600, 20 h, 42 °C; stronger effect = lower value; relative growth, % (test concentration not listed);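 active means growth at 42 °C up to 50% and 20 or more points under that at 30 °C, or under 10% at both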;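 further: 300 nL library stock went into each well; scaled to the means of positive and negative controls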
# Sa growth 42C second temp – further read-out of Sa growth 42C, marked with its call; relative growth, %; measured here: growth at 30 °C;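 optical density after 20 h as mean of two plates; 100% = untreated growth and lower means inhibition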
# * marks the source's active call; other numbers are inactive results; / = no result given; & = joins results of further samples. An unsorted share of the library; any-hit rate near 0.85%.
nr	canonical_smiles	HCMV NEC inh	GIV Gai3 FP	Sa growth 42C	Sa growth 42C second temp
1	CCc1cc2c(=O)c(-c3nc4ccccc4[nH]3)c(C)oc2cc1O	9.0	/	68.8	95.8
2	Cc1cc(O)c(CN2CCN(S(=O)(=O)c3cccc(Br)c3)CC2)cc1C	-1.9	/	106.0	110.5
3	CCOC(=O)Cn1c(C)cc(=O)c2cccc(OC)c21	-51.8	99.5	85.5	80.5
4	Nc1nonc1-n1nnc(CO)c1CO	-32.2	100.6	105.8	88.4
5	c1ccc(-c2nnc(-c3cccnc3)nc2-c2ccccc2)cc1	-30.5	/	83.4	89.1
6	O=C(Nc1ccc(F)cc1F)C1CC(=O)N(Cc2ccccc2)C1 (stereo unspecified)	-10.9	/	101.0	91.1
7	Cc1cc(C(=O)N/N=C2\CC(=O)c3ccccc32)c(C)o1	-51.6	/	95.2	90.7
8	O=C(OCc1csc(-c2ccccc2)n1)C1Cc2ccccc2CN1S(=O)(=O)c1cccs1 (stereo unspecified)	-18.0	/	103.5	78.2
9	COc1cccc(NC(=O)CSc2nc3c([nH]c4ccccc43)c(=O)n2C)c1	/	110.5	82.5	79.8
10	O=C(Cc1c[nH]c2ccccc12)OCC(=O)N1CCCc2ccccc21	-14.2	/	116.7	92.2
11	COC(CNC(=O)C1CCC(=O)N1Cc1ccc(C)cc1)OC (stereo unspecified)	-28.0	103.1	95.4	92.4
12	CCOC(=O)c1nnn(-c2nonc2N)c1-c1cccc2ccccc12	/	95.8	95.8	78.6
13	CCCN1CCN(C2CCN(C(=O)C(C)(C)C)CC2)C1=O	-18.3	105.9	/	/
14	CC1(C)C2CC=C(COCC(O)CN3CCN(S(=O)(=O)c4ccccc4)CC3)C1C2 (stereo unspecified)	-13.4	/	90.5	95.1
15	O=C(O)c1cc(N2CCN(c3ccccc3F)CC2)nc2ccc(NC(=O)C3CCC3)cc12	-37.3	102.7	/	/
16	C/C(=N\N(C=O)c1ccc(C(=O)N2CCOCC2)cc1)C(=O)c1ccccc1	-33.6	/	86.7	83.2
17	O=C(O)c1c2c(nc3ccc(S(=O)(=O)N4CCC(C(=O)NCc5ccc(Cl)cc5)CC4)cc13)CCCC2	-41.7	105.3	109.4	87.6
18	Cc1nc2sc(C(=O)N(C)c3ccccc3)c(NC(=O)c3ccccc3Cl)c2c(C)c1C	-10.8	108.1	114.7	92.9
19	N#Cc1ccccc1NC(=O)COC(=O)c1ccc2c(c1)OCCO2	13.0	/	94.5	97.2
20	COc1cc2c(cc1OC)C1C(C(=O)N(C)C3CCCCC3)c3ccccc3C(=O)N1CC2 (stereo unspecified)	-3.7	99.1	108.6	89.4
21	Cn1nc(C(=O)N2CCN(c3ccccc3F)CC2)c2c1-c1ccccc1SC2	-16.6	98.2	80.5	94.0
22	COc1ccc(COC(=O)C2=C(C)NC3=C(C(=O)CC(C)(C)C3)C2c2coc3ccc(Cl)cc3c2=O)cc1 (stereo unspecified)	-10.2	101.1	/	/
23	CN(CC1COc2ccccc2O1)C(=O)/C=C/c1cccs1 (stereo unspecified)	-56.9	/	106.3	85.0
24	Cc1csc(C(C#N)C(=O)CSc2nc(-c3ccccc3)c(-c3ccccc3)o2)n1 (stereo unspecified)	-19.6	/	76.7	74.4
25	Cc1ccc(S(=O)(=O)NCc2ccc(C(=O)N3CCN(c4ccccn4)CC3)cc2)cc1	13.2&-5.3	115.5&102.1	50.0	32.4
26	O=c1c2ccccc2n2c(-c3ccccc3)nnc2n1CCc1ccccc1	/	97.7	77.5	88.6
27	Cn1c(=O)c2sccc2n2c(SCc3ccccc3Cl)nnc12	-14.1	101.8	/	/
28	O=C(CS(=O)(=O)c1nc(-c2ccc(Cl)cc2)cn1-c1ccccc1)Nc1ccc(F)cc1F	-10.8	101.1	102.8	65.9
29	N#Cc1c(-c2ccccc2)nc(N2CCCCC2)[nH]c1=O	-1.1	101.6	102.4	84.7
30	O=C(NCc1cccc(C(F)(F)F)c1)C1CCN(c2ncccn2)CC1	6.6	101.9	101.7	97.8

# Next structures.
nr	canonical_smiles	HCMV NEC inh	GIV Gai3 FP	Sa growth 42C	Sa growth 42C second temp
31	CC1(C)C=C(NCC2CCCO2)CC(=O)C1 (stereo unspecified)	-8.5	/	97.5	91.2
32	C/C(=N\NC(N)=O)C1CC(CC(C)C)C(=O)O1 (stereo unspecified)	-9.4	111.2	76.3	108.0
33	CCCCNc1cc(C)nc2c(-c3ccc(C)cc3)c(C(F)(F)F)nn12	-16.5	101.5	/	/
34	Cc1nnc(SCC(=O)O)s1	-9.0	/	115.5	87.1
35	CC(=O)Nc1cccc(C(=O)NCc2ccc3c(c2)CCN3C(C)=O)c1	/	101.2	102.2	91.3
36	CC1(C)CC(=O)C2=C(C1)OC(N)=C(C#N)C21CCN(Cc2ccccc2)CC1	-9.4	/	124.6	118.9
37	CCCCn1c(N)c(N2CCOCC2)c(=O)n(CC(=O)Nc2ccc(S(=O)(=O)N(CC)CC)cc2)c1=O	-5.3	/	89.8	94.1
38	CCC1=NN(C(=O)Cc2ccccc2)C(O)(c2ccccc2)C1 (stereo unspecified)	-17.2	105.8	113.8	100.8
39	CSc1c[nH]n(-c2ccccc2)c(=O)c1=O	-51.4	106.5	126.3	54.0
40	Cc1cc(C)c2[nH]c(=O)c(C(c3nnnn3C(C)(C)C)N(CCc3ccc(F)cc3)Cc3ccco3)cc2c1 (stereo unspecified)	-0.4	101.5	102.4	102.8
41	CCN(C(=O)C1CCCN1S(=O)(=O)c1cc2c(cc1Cl)NC(=O)CO2)c1ccccc1 (stereo unspecified)	-20.5	97.7	/	/
42	CCOc1ccc(/C=N/O)cc1	-4.8	/	103.6	91.4
43	CCOC(=O)c1cccc(NC(=O)CCn2cnc3ccccc3c2=O)c1	-26.1	100.9	/	/
44	COC(=O)c1cnc(N)s1	-29.1	/	72.3	93.8
45	CC(C)NC(=O)CSc1ncnc2nc(N3CCSCC3)sc12	-22.5	101.5	/	/
46	COc1ccc(S(=O)(=O)Nc2ccc(-c3ccc(N4CCCC4)nn3)cc2)cc1OC	-91.8	99.5	/	/
47	Cc1ccc(NC(=O)CCN2CCCCC2)cc1	-2.6	/	109.2	85.4
48	CCC(=O)N1CCNC(=O)C1CC(=O)OC (stereo unspecified)	-3.0	98.6	99.7	83.7
49	O=C(COc1ccc(Cl)cc1Cl)NC1CCSC1=O (stereo unspecified)	-1.5	109.0	109.2	73.5
50	CCOC(=O)c1c(C)n(-c2ccc(Cl)cc2)c2ccc(Oc3nccc(Nc4ccccc4)c3C#N)cc12	-12.5	105.2	/	/
51	OCC1COc2ccccc2O1 (stereo unspecified)	-8.9	103.4	89.2	89.2
52	CN(C(=O)COC(=O)Cc1ccc(Cl)cc1)C1CCCCC1	-15.7	/	99.5	89.3
53	CNC(=O)C1CCCN(c2nn3c(=O)cc(C)nc3s2)C1 (stereo unspecified)	/	99.4	92.3	88.4
54	CC(=O)c1ccc(NC(=O)c2nc3ccccc3nc2N2CCCCC2)cc1	/	89.9	112.8	88.2
55	COc1ccccc1NC(=O)c1sc(=S)n2c1[nH]c(=O)c1cc(Cl)ccc12	1.4	107.4	/	/
56	O=c1[nH]c(SCc2nc(-c3ccc(Br)cc3)no2)nc2ccsc12	-25.4	102.7	/	/
57	CCOc1ccc(N(CC(=O)NCc2ccc(C)cc2)S(=O)(=O)c2c(C)noc2C)cc1	-28.8	108.6	98.6	88.9
58	O=C1Nc2ccccc2OC1CC(=O)N1CCc2ccccc21 (stereo unspecified)	-2.6	104.7	89.4	85.6
59	Cc1ccc2nc(C3=C(O)CN(CC4CCCO4)C3=N)[nH]c2c1 (stereo unspecified)	2.2	106.0	/	/
60	CC(C)CCNC(=O)C1CCCN(S(=O)(=O)c2ccc3c(c2)oc(=O)n3C)C1 (stereo unspecified)	-29.9	101.1	100.9	87.0

# (more compounds)
nr	canonical_smiles	HCMV NEC inh	GIV Gai3 FP	Sa growth 42C	Sa growth 42C second temp
61	COc1ccccc1C1=NOC(C(=O)Nc2ccc(C)cc2)C1 (stereo unspecified)	-22.5	95.9	89.1	79.6
62	C=C(C)CSc1nc(-c2ccccc2)cc(-c2ccc(OC)cc2)c1C#N	-14.6	103.9	108.2	84.2
63	CCOC(=O)c1cccc(NC(=O)CCc2c(C)nn(-c3ccc(N4CCOCC4)nn3)c2C)c1	/	109.3	94.2	106.7
64	O=C(COC(=O)c1ccccc1Nc1ccccc1)c1ccccc1	/	101.6	88.6	89.3
65	O=C(Nc1c2c(nn1-c1ccccc1)CS(=O)C2)C12CC3CC(CC(C3)C1)C2 (stereo unspecified)	-16.1	102.2	93.5	81.5
66	COC(=O)C(O)(c1c(C)nn(-c2ccccc2)c1N)C(F)(F)F (stereo unspecified)	-15.1	106.5	112.8	92.9
67	O=C1CCCc2c1c(Nc1ccc(F)cc1)nn2-c1ccccc1	0.3	107.8	/	/
68	O=C(C1CCCN1S(=O)(=O)c1cccc2cccnc12)N1CCc2ccccc21 (stereo unspecified)	5.7	101.4	95.9	90.4
69	COc1ccc(-c2noc(N3CC=C(c4ccccc4)CC3)n2)cc1	-28.3	96.7	/	/
70	O=C1CCCC(O)=C1C(C#Cc1ccccc1)C1=C(O)CCCC1=O	-5.5	/	106.4	67.0
71	CC(C)(CO)NCc1ccc(-c2ccc(F)c(Cl)c2)o1	-18.5	108.0	/	/
72	O=C(Cn1c(=O)oc2ccccc21)N(Cc1ccco1)CC1CCCO1 (stereo unspecified)	-8.0	104.2	102.2	93.0
73	c1ccc(Cn2nnnc2CN2CCC(n3cnc4cccnc43)CC2)cc1	11.3	107.1	91.9	88.1
74	O=C1OCC2=C1C(c1ccc(F)cc1)Sc1ccccc1N2 (stereo unspecified)	-9.4	103.2	86.5	86.4
75	Cc1cccc(NC(=S)N=Nc2c(O)n(CN3CCOCC3)c3ccccc23)c1C	-49.2	100.4	80.1	47.9
76	O=C(O)CCC(=O)N1CCN(Cc2ccc3c(c2)OCO3)CC1	-5.7	102.5	98.6	76.6
77	O=C(CSc1nc2ccsc2c(=O)n1CCc1ccccc1)Nc1nccs1	-1.4	100.4	91.6	84.1
78	O=C(CN1C(=O)COc2ccccc21)NCCc1ccc(Cl)cc1	/	97.5	112.7	91.5
79	Cc1ccc(NC(=O)c2cc(S(=O)(=O)N3CCOCC3)c(Cl)cc2Cl)cc1	-44.5	101.9	96.5	90.1
80	CCOc1ccc(CCNC(=O)c2cn(CC(C)C)c(=O)c3c2c2ccccc2n3C)cc1OCC	/	103.6	113.4	91.0
81	O=C(O)Cn1ccc(=O)[nH]c1=O	2.3	99.6	97.6	74.8
82	O=C(CSc1n[nH]c(-c2ccccc2Cl)n1)NCCCc1ccccc1	/	101.2	142.5	90.5
83	Cc1cc(C(=O)N/N=C/C=C/c2ccccc2)n[nH]1	-65.3	99.2	96.4	87.0
84	CCCNS(=O)(=O)c1ccc2c(c1)CCCC(=O)N2	13.0	104.7	98.5	100.0
85	Cc1nc(Cc2nnc(SCc3nc4ccccc4o3)o2)cs1	16.9	/	114.1	92.8
86	COc1cccc(-c2nn(-c3ccccc3)cc2C(=O)NCC(=O)O)c1	-3.6	111.3	105.1	100.9
87	COc1cc(C(=O)OCc2ncc(-c3ccccc3)o2)cc(OC)c1C	-26.2	/	75.7	90.3
88	O=C(c1ccc(F)cc1)n1nc(-c2ccccc2)nc1NCc1ccc(F)cc1	-8.4	104.2	81.5	91.6
89	Cc1ccc(-c2noc(CN(C(=O)c3ccc(C(C)(C)C)cc3)C(C)C)n2)cc1	-33.0	99.2	105.6	91.1
90	O=C(Nc1ccc(F)cc1Cl)C1Cc2ccccc2N1C(=O)c1ccccc1 (stereo unspecified)	/	101.0	92.0	104.3

# (next part)
nr	canonical_smiles	HCMV NEC inh	GIV Gai3 FP	Sa growth 42C	Sa growth 42C second temp
91	Cc1ccc(Cl)cc1N(CC(=O)N1CCN(C(c2ccccc2)c2ccccc2)CC1)S(C)(=O)=O	-2.0	105.3	/	/
92	COc1nc(OC/C(N)=N/O)nc(N2CCOCC2)n1	1.3	107.1	95.7	79.9
93	OCCNc1ccc2ccccc2n1	/	107.6	112.2	85.2
94	Cc1nn(Cc2nc(-c3ccc4c(c3)OCO4)no2)c(C)c1Br	5.7	99.1	89.7	94.6
95	Cc1sc(-n2cccc2)c(C(C)NC(=O)Nc2ccccc2Cl)c1C (stereo unspecified)	-9.6	105.3	112.8	102.0
96	Cc1ccc(NC(=O)CCNS(=O)(=O)c2ccc3c(c2)CCN3C(=O)C2CC2)c(Cl)c1	/	100.6	112.6	82.2
97	Cc1c(Cl)ccc2sc(N3CCN(C(=O)C4CC4)CC3)nc12	/	97.0	118.5	89.3
98	CC1CC(C)(C)OC(CN2CCCCC2)O1 (stereo unspecified)	-5.0	102.5	92.7	92.3
99	COc1ccccc1N(CC(=O)NCCSCc1ccccc1)S(=O)(=O)c1ccc(C)cc1	-17.3	105.5	93.0	83.0
100	COc1cc2c3c(c1OC)C1(C=CC(=O)C=C1)CC3N(C(=O)c1ccccc1)CC2 (stereo unspecified)	-12.1	/	88.0	81.3
101	CN1c2ccccc2-c2nc3ccccc3n2C1c1ccncc1 (stereo unspecified)	-27.1	104.6	90.3	59.2

# A different layout for part of the listing above:
101. CN1c2ccccc2-c2nc3ccccc3n2C1c1ccncc1 (stereo unspecified)
92. COc1nc(OC/C(N)=N/O)nc(N2CCOCC2)n1
98. CC1CC(C)(C)OC(CN2CCCCC2)O1 (stereo unspecified)
entry no. | 101 | 92 | 98
HCMV NEC inh | -27.1 | 1.3 | -5.0
GIV Gai3 FP | 104.6 | 107.1 | 102.5
Sa growth 42C | 90.3 | 95.7 | 92.7
Sa growth 42C second temp | 59.2 | 79.9 | 92.3
